Mtb hypoxia rep = PubChem AID 1159583 | M. tuberculosis hypoxia-regulated fluorescent reporter, fluorescence | 0.1% of 300,000 active | fluorescence inhibition, % (no concentration beside the values);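 active = 35 to 45% if threefold the growth effect, above 45% if 1.5-fold the growth effect; inactive = the rest, general growth blockers included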;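 also: wells of about 50 µL received 100 nL stock; 0% = vehicle wells and 100% = reference inhibitor wells; whole bacteria with a GFP reporter of the hypoxia response; strong numbers were not always called active; many hits fall short of the cut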
Sa RN4220 lethal = growth inhibition of S. aureus RN4220, primary screen, OD600; inhibition, % (concentration not given with the values); AID 1259311, 2017; 0.33% of 330,000 active; 16 h;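 active = z-score of -3 or lower and OD600 up to 0.18 on both plates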;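 also: plate controls were untreated cells for no effect and reference antibiotic for full effect; stock transfer was 100 nL into about 80 µL; one replicate is shown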
Bead autofluor = flagged as autofluorescent in microsphere protease counterscreen; compound autofluorescence counterscreen, microsphere flow cytometry; stronger effect = higher value; fluorescence intensity (concentration not given with the values); 3.1% of 360,000 active; AID 624483;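 active = at least 3 SD above the mean of all compounds, about 16000 in these data; inconclusive = too few beads counted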;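 also: 100 nL of 1 mM stock went into each well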
Sa ugtP lethal = growth inhibition of ugtP-null S. aureus, primary screen, RN4220 ugtP deletion, OD600. 16 h; some inactives read as strong as hits. growth inhibition, % (test concentration not listed). AID 1259309, 2017. 0.54% of 330,000 active;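 active = z-score under -3 and OD600 up to 0.15 on both plates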;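 also: plate controls were untreated wells for no effect and antibiotic for full effect; wells of about 80 µL received 100 nL stock; the first replicate is given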
BJeLR lethal = MLPCN primary cell-based screen for lethality selective to Ras in HRASV12 cells. BJeLR (HRASV12) viability, CellTiter-Glo ATP luminescence, 48 h; reference of the scale not given here. inhibition, % (concentration not given with the values). 0.17% of 300,000 active. AID 1554, 2009;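 active = replicate mean above 50%; inconclusive = above 50% but judged a plate artefact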;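 also: 50 nL library stock added to about 25 µL; numbers are from one replicate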
PrP 5UTR inh = inhibition of PrP 5' UTR reporter expression | cell-based PrP 5' UTR mRNA reporter, plate reader | inhibition, % (test concentration not listed) | 0.35% of 340,000 active;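 active = every replicate at 50% or more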;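 also: 0 = median of the neutral control wells; tested in H4 reporter cells; numbers are from one replicate; inactives centre near -14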
Mtb hypoxia rep growth = second read-out of Mtb hypoxia rep, no call of its own (marks repeat the call); growth inhibition, %; measured here: M. tuberculosis growth (absorbance);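 0% = vehicle and 100% = reference antibiotic; read after six days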
Numbers without * were called inactive; u = inconclusive; x = not tested or not shown.

SMILES | Mtb hypoxia rep | Mtb hypoxia rep growth | Sa RN4220 lethal | Bead autofluor | Sa ugtP lethal | BJeLR lethal | PrP 5UTR inh
Cc1ccccc1CS(=O)(=O)c1ncc(Cl)c(C(=O)Nc2ccc(F)cc2)n1 | 2 | 12 | 5.0 | 4047 | 4 | 27 | 15
COc1ccc2c(c1)cc(C(=O)O)n2C | 3 | 1 | 0.1 | u | 60 | 5 | -19
O=C(CN1CCN(c2ccc(F)cc2)CC1)OCc1ccccc1 | 0 | -16 | -1.9 | 9882 | 11 | 6 | -22
Cc1ccc(OCCCN2CCOCC2)cc1 | 1 | -3 | 5.5 | 3112 | 6 | -5 | 2
Cc1cccc(NC(=O)C2CCCN2C(=O)OCC(C)C)c1C (centres undefined) | 9 | 12 | 5.9 | 21398* | 2 | 6 | -34
Cc1cc(C)cc(C(=O)Nc2ccc(N3CCN(S(C)(=O)=O)CC3)cc2)c1 | 2 | 4 | 3.8 | 4221 | 3 | 3 | -25
CC(=O)Nc1ccc(S(=O)(=O)N(C)CC(=O)OCC(=O)N2CCCCCC2)cc1 | 0 | -4 | 0.0 | 5860 | 2 | 8 | -23
COc1ccc(NC(=O)c2onc(C)c2Cl)cc1OC | -2 | 8 | -2.6 | 5774 | -21 | -2 | -19
CCC(C(=O)N1CCOCC1)n1nc(C)c2c(C)n(-c3ccccc3)nc2c1=O (centres undefined) | -1 | -6 | 4.6 | 5574 | 1 | 0 | -22
O=C(NCCSc1ccc(Br)cc1)c1ccc2nc[nH]c2c1 | -7 | 3 | 1.3 | 5505 | -3 | -7 | -18
Cc1cc(-c2nnc(CCC(=O)NCC(C)c3ccccc3)o2)no1 (centres undefined) | 3 | -1 | 1.3 | 6528 | 7 | 2 | -12
CC(=O)N1N=C(c2cccs2)CC1c1ccc(Br)cc1 (centres undefined) | 5 | -1 | -0.4 | 3855 | -8 | 2 | -14
O=C(c1cccc(OC2CCN(Cc3cccc(OCCO)c3)CC2)c1)N1CCCC1 | -6 | 9 | -2.1 | 6226 | -5 | -2 | -11
CCN(CC)S(=O)(=O)c1ccc(Cl)c(C(=O)Nc2nnc(C)s2)c1 | 5 | 12 | 2.8 | 23810* | 1 | -3 | -33
CCOc1ccc(NC(=O)N2CCC(c3nc4ccccc4o3)CC2)cc1 | 1 | 9 | 6.5 | 3269 | 13 | 4 | 5
COc1ccc(/C=C/C(=O)NCC(=O)N/N=C/c2cc(Br)ccc2OCc2ccccc2)cc1 | x | x | x | 2159 | x | -1 | -12
COC(=O)C(C)Oc1cc(C)cc2oc(=O)c3c(c12)CCCC3 (centres undefined) | x | x | -0.7 | 4165 | 4 | 0 | 1
Cc1cc(C(=O)COc2ccc(C#N)cc2)c(C)n1CC1CCCO1 (centres undefined) | 7 | 6 | -1.9 | 2940 | -4 | x | x
On1nnc2ccc(C(F)(F)F)cc21 | -3 | -10 | 4.8 | 3990 | 2 | 9 | -9
CCCn1nc(C(=O)Nc2ccc(S(=O)(=O)Nc3ncccn3)cc2)c2ccccc2c1=O | 20 | 23 | 0.7 | 4734 | 7 | 7 | -40
NS(=O)(=O)c1ccc(CCNC(=O)c2ccc([N+](=O)[O-])cc2[N+](=O)[O-])cc1 | 4 | 8 | 13 | 3931 | 6 | 0 | -19
COc1ccc(CCN(Cc2cc3cccc(C)c3n3nnnc23)C(=O)c2ccncc2)cc1OC | -3 | -4 | 6.7 | x | 11 | -7 | x
O=C(NCc1ccccn1)c1cccc(S(=O)(=O)Nc2ccccc2Cl)c1 | 9 | 5 | 5.4 | 3599 | 6 | x | -35
O=C(Nc1ccc2c(c1)C(=O)N(CC1CCCO1)C2=O)c1ccccc1Br (centres undefined) | 13 | 10 | 2.7 | 11195 | 5 | -1 | -12
CC1CC(C)CN(C(=O)CCNS(=O)(=O)c2ccc3c(c2)CCC(=O)N3)C1 (centres undefined) | 7 | 0 | 2.1 | 8976 | 11 | -1 | -38

6 consecutive entries out of the list so far:
SMILES | Mtb hypoxia rep | Mtb hypoxia rep growth | Sa RN4220 lethal | Bead autofluor | Sa ugtP lethal | BJeLR lethal | PrP 5UTR inh
Cc1cc(C)cc(C(=O)Nc2ccc(N3CCN(S(C)(=O)=O)CC3)cc2)c1 | 2 | 4 | 3.8 | 4221 | 3 | 3 | -25
CC(=O)Nc1ccc(S(=O)(=O)N(C)CC(=O)OCC(=O)N2CCCCCC2)cc1 | 0 | -4 | 0.0 | 5860 | 2 | 8 | -23
COc1ccc(NC(=O)c2onc(C)c2Cl)cc1OC | -2 | 8 | -2.6 | 5774 | -21 | -2 | -19
CCC(C(=O)N1CCOCC1)n1nc(C)c2c(C)n(-c3ccccc3)nc2c1=O (centres undefined) | -1 | -6 | 4.6 | 5574 | 1 | 0 | -22
O=C(NCCSc1ccc(Br)cc1)c1ccc2nc[nH]c2c1 | -7 | 3 | 1.3 | 5505 | -3 | -7 | -18
Cc1cc(-c2nnc(CCC(=O)NCC(C)c3ccccc3)o2)no1 (centres undefined) | 3 | -1 | 1.3 | 6528 | 7 | 2 | -12

Other compounds follow.
SMILES | Mtb hypoxia rep | Mtb hypoxia rep growth | Sa RN4220 lethal | Bead autofluor | Sa ugtP lethal | BJeLR lethal | PrP 5UTR inh
COc1ccc(-c2noc(N3CCC(C(=O)Nc4ccc(OC)c(OC)c4)CC3)n2)cc1 | 0 | 4 | 2.7 | 4412 | -4 | 5 | -15
CCN(CC(=O)Nc1ccc(NC(C)=O)cc1)C(=O)c1cc(CN2C(=O)c3ccccc3C2=O)ccc1OC | 4 | 3 | 4.2 | 5846 | -1 | 7 | -24
Cc1cc(-c2nc3ncccc3o2)ccc1N | x | x | 3.5 | 5011 | -6 | -4 | -58
COc1ccccc1C=Nn1c(C)nnc1-n1nc(C)cc1C | 0 | 9 | 5.5 | x | 8 | x | x
Nc1nc(Oc2ccc(F)cc2)c(Br)c(=O)[nH]1 | 1 | -4 | 2.2 | 2847 | 12 | -2 | 4
CC12CCC(C(=O)N(NC(=O)c3ccccc3O)C1=O)C2(C)C (centres undefined) | -1 | -19 | -5.0 | 2255 | -3 | -2 | -8
COc1ccc(NS(=O)(=O)/C=C/c2ccc(OC)c(OC)c2)cc1 | 5 | 1 | 8.4 | 4675 | 10 | -1 | -9
O=P(NS(=O)(=O)c1ccc(Br)cc1)(Oc1ccccc1)Oc1ccccc1 | 0 | -1 | 6.0 | 7276 | 14 | 0 | -15
O=C(NCCc1ccccc1)C1CC=CC2CCN(C3CCCCC3)C(=O)C21 (centres undefined) | 6 | 8 | 3.6 | x | -2 | x | x
Cn1cccc1-c1cc(C(=O)O)[nH]n1 | 5 | 10 | 3.6 | 9225 | 2 | -14 | -23
Cc1ccc(NC(=O)CSc2nnc(Cc3csc(C)n3)o2)c(C)c1 | 0 | -7 | 4.8 | u | 15 | -8 | -21
COCCN(C(=O)CCC(=O)Nc1cc(C)on1)C(C(=O)NC(C)(C)C)c1ccccc1Cl (centres undefined) | 16 | 4 | -0.2 | 5423 | 0 | -1 | -26
O=P(Nc1cccc(F)c1)(Oc1ccccc1F)Oc1ccccc1F | 0 | 0 | -3.4 | 5820 | -32 | -3 | -9
CC1(C)CC(=O)C(C=Nc2ccccn2)=C(O)C1 | 1 | 14 | 3.6 | x | 2 | x | x
COc1ccc(NS(=O)(=O)c2ccc3oc(=O)ccc3c2)cc1 | 18 | 11 | 1.5 | 3942 | 6 | -5 | -3
C=CCc1c(C)c(C#N)c2nc3ccccc3n2c1N1CCCCC1 | 11 | 4 | -1.8 | 5707 | 1 | -6 | -9
Cc1cc2oc(=O)c(CC(=O)NCCCO)c(C)c2c2occ(C(C)(C)C)c12 | 7 | -2 | 2.8 | 3633 | 0 | -2 | -25
O=C(Nc1ccccc1)N(CCc1nc2ccccc2[nH]1)C1CCCC1 | 0 | 2 | 2.0 | 8002 | -2 | 0 | 4
Cc1cc(C)cc(NC(=O)NCc2c(-c3ccccc3)noc2C)c1 | 17 | 2 | -8.3 | 3490 | 7 | 4 | 1
NC(=O)c1cc2ccccc2o/c1=N/NC(=O)c1cccc(Cl)c1 | x | x | x | 3714 | x | 5 | -7
CCOc1ccc(OCCC(=O)N(CCC(C)C)c2c(N)n(Cc3ccccc3)c(=O)[nH]c2=O)cc1 | -4 | -8 | 3.9 | 4172 | 13 | 3 | 2
COc1cc(C)nc(N2CCCC(C(=O)Nc3cccc(Cl)c3Cl)C2)n1 (centres undefined) | 9 | 6 | 3.1 | 3521 | -9 | -21 | -3
CCn1cnc2sc(C(=O)O)c(C)c2c1=O | x | x | 2.1 | 3903 | 5 | 4 | -24
COc1ccc(CCn2c(=N)c(C(=O)NCC3CCCO3)cc3c(=O)n4cccc(C)c4nc32)cc1OC (centres undefined) | -3 | -4 | 2.6 | 4546 | 7 | -1 | -36
CC(=O)Nc1ccc(NC(=O)C(C)Sc2n[nH]c(-c3ccc(C)cc3)n2)cc1 (centres undefined) | -11 | 0 | 1.9 | 5635 | 0 | -9 | -14
More entries.
SMILES | Mtb hypoxia rep | Mtb hypoxia rep growth | Sa RN4220 lethal | Bead autofluor | Sa ugtP lethal | BJeLR lethal | PrP 5UTR inh
O=C(NCCCN1CCCC1=O)c1cccc(S(=O)(=O)N2CCN(c3ccccc3)CC2)c1 | 3 | -9 | 1.4 | 5606 | 2 | -4 | -15
COc1ccccc1CNC(=O)C(NC(=O)c1ccc(C)cc1)C(C)C (centres undefined) | 2 | 5 | 4.1 | 5585 | 4 | 2 | -22
CCN(c1ccc(NC(=O)COC(=O)CCc2cc(OC)c(OC)c(OC)c2)cc1)C(C)C | 5 | 2 | 5.3 | 1913 | 2 | 2 | -16
COc1ccc(S(=O)(=O)N(CC(=O)NCCSc2ccccn2)c2ccccc2)cc1 | 4 | -4 | 3.6 | 4468 | 0 | -3 | -6
Cc1ccc(Cn2c(C3CCCN3c3nc(C)cs3)nc3cc(C(=O)NCCCO)ccc32)cc1 (centres undefined) | 8 | -8 | 7.8 | 3575 | 6 | -10 | -5
CC(C)[C@H]1C=C(C(=O)O)O[C@@H](OCc2ccc(CO)cc2)C1 | x | x | x | 3028 | x | -3 | -9
CC(=O)N/C(=C/c1ccc(OS(=O)(=O)c2ccc(C)cc2)cc1)C(=O)NCCO | 5 | 10 | 2.8 | 2466 | 4 | 7 | -28
CCCCc1nc(Cl)c(C#N)c2c1CCC2 | -1 | 2 | -2.6 | 3701 | -7 | 11 | x
Cc1ccc(S[C@@H](CCN2CC[C@H](C)CCC2=O)c2ccccc2)cc1 | x | x | x | 2846 | x | 6 | -20
CSc1ccccc1NC(=O)c1ccc(C)o1 | 3 | 1 | 3.1 | 9826 | 3 | 6 | -29
c1ccc(CCCCN2CCN=C2Nc2ccccc2)cc1 | 18 | 12 | 7.9 | 4263 | 6 | x | -11
CCOC(=O)C1=C(C)CC(=NNC(=O)c2ccccc2O)CC1 | 20 | 26 | 3.1 | x | -5 | x | x
Cc1ccc(S(=O)(=O)C=Cc2ccccc2)cc1 | 12 | 12 | 9.2 | x | 4 | x | x
Cc1nnc2sc(SCC(=O)Nc3ccc(Cl)cc3)nn2c1=O | 3 | -4 | 7.5 | 4134 | 6 | -14 | -26
COc1cc(/C=N/Nc2ccc(Cl)nn2)cc(OC)c1O | x | x | x | 4239 | x | -8 | 0
CCOC(=O)C(=O)N(Nc1ccccc1C)c1ccccc1C | 7 | -2 | 6.6 | 2466 | 5 | 14 | 3
CC(C)CCNC(=O)COc1ccc(C(=O)c2ccccc2)cc1 | 3 | 3 | 1.9 | 4167 | 5 | 10 | -22
O=C(c1cc(COc2ccc(F)cc2Cl)on1)N1CCCC(OCc2cccnc2)C1 (centres undefined) | -1 | 11 | 4.3 | 3752 | 4 | 2 | -7
COc1nc(C#N)nc(N(C)C)n1 | -2 | -5 | -1.9 | 20512* | -7 | 15 | -10
Cc1onc(-c2ccccc2Cl)c1C(=O)Nc1ccccc1N1CCOCC1 | 8 | 4 | 9.5 | 2851 | -5 | -1 | -19
COc1ccccc1C(=O)NCCn1cc(SCC(=O)NCc2ccco2)c2ccccc21 | 3 | 4 | 3.9 | 10579 | 2 | -1 | -17
O=C(NCCCN1CCCC1=O)c1ccc(OC(F)(F)F)cc1 | 0 | 5 | -1.5 | 3451 | 6 | 6 | 14
O=C(Nc1ccncc1)C1CCN(S(=O)(=O)c2cccc(C(F)(F)F)c2)CC1 | 10 | 6 | -5.9 | 3000 | -14 | x | 4
COCCCn1cnc2c(c1=O)c1nc3ccccc3nc1n2CCc1ccccc1 | 7 | 7 | 4.6 | 4518 | -14 | 3 | 17
O=C(CCN1C(=O)/C(=C/c2ccccc2F)SC1=S)Nc1ccccn1 | 4 | 10 | -0.6 | 5930 | -1 | 2 | -13

Source: PubChem (several laboratories)
